High-throughput results: PubChem BioAssay, The Scripps Research Institute Molecular Screening Center
HCV core dimer = HCV core protein dimerization inhibition; 300,000 compounds, 0.33% hits; inhibition, % at 5 µM; TR-FRET GST/Flag-core106 dimerization, 1536-well;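 active means inhibition above the mean of all tested compounds plus 3 SD, set per screening campaign, cut at about 45% in these data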
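Test system: GST/Flag-tagged HCV core106 proteins; Medium: KF-containing HEPES buffer, pH 7.45, DTT, CHAPS, BSA; Times: compound-protein-antibody incubation 4 h at 22.5 °C; Detection: TR-FRET 671 and 617 nm emission; Benchmarks: wells lacking GST-core106 and wells with excess unlabelled core106.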
Fh CTSL1 inh = counter-screen for PFM18AAP inhibitors: inhibitors of F. hepatica cathepsin L1; 300,000 compounds, 0.49% hits; recombinant F. hepatica cathepsin L1, Z-Leu-Arg-MCA fluorescence; inhibition, % at 5.96 µM;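 active means inhibition above the mean of all tested compounds plus 3 SD, set per screening campaign, cut at about 17% in these data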;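 further: 0% = plate median of test compound wells and 100% = 1 µM Z-Phe-Ala-diazomethylketone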
PP5 primary = blocks human protein phosphatase 5 activity | inhibition, % at 6.7 µM | purified PP5c, OMFP substrate fluorescence | P53041 | AID 1987 | 320,000 compounds, 0.18% hits;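 active means inhibition above the campaign's mean inhibition across all tested compounds plus 3 SD, cut at about 9.5% in these data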;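 further: 0% = DMSO only and 100% = 100 µM cantharidin control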
Target sequence (P53041 whole entry, looked up): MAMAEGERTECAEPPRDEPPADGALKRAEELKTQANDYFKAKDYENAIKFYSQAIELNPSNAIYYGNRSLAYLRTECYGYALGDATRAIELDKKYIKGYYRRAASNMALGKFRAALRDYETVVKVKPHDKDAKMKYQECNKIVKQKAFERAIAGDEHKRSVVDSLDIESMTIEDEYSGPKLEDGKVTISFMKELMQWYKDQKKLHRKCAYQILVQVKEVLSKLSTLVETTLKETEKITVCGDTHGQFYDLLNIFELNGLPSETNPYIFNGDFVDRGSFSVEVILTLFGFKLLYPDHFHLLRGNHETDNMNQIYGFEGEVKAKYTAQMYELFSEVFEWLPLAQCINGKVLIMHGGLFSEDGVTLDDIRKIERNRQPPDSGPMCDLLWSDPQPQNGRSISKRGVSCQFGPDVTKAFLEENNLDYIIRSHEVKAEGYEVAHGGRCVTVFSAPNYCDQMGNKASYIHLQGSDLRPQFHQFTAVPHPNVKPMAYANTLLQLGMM
TPT1 inhibitor = inhibitors of Candida albicans tRNA 2'-phosphotransferase TPT1; 300,000 compounds, 0.81% hits; recombinant caTPT1, FP RNA substrate dephosphorylation; inhibition, % at 5 µM;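 active means inhibition above the mean of all tested compounds plus 3 SD, set per screening campaign, cut at about 24% in these data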;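 further: plate controls were DMSO alone for no effect and ferristatin control at 100 nM for full effect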
PAFAH2 FP inh = inhibitors of human PAFAH2 | AID 492956 | Q99487 | inhibition, % at 3.39 µM | 340,000 compounds, 0.99% hits | recombinant PAFAH2, FP-rhodamine activity probe, fluorescence polarization;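 active means inhibition above the mean over all tested compounds plus 3 SD, cut at about 30% in these data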;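 further: inhibitors block probe labeling of enzyme so polarization drops; 0% = enzyme with DMSO and 100% = wells lacking PAFAH2 protein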
The depositor's hits bear a star; & = joins results of further samples.

What do the screens show for `Cn1c(=O)c2c(ncn2C)n(C)c1=O`?
HCV core dimer: -7; Fh CTSL1 inh: -1; PP5 primary: 1.6; TPT1 inhibitor: -1; PAFAH2 FP inh: -5

How did O=c1[nH]cnc2c1ncn2[C@H]1CC[C@@H](CO)O1 do in these assays?
HCV core dimer: 3; Fh CTSL1 inh: 2; PP5 primary: -0.5; TPT1 inhibitor: 1; PAFAH2 FP inh: 0

Results for N=C(N)c1ccc(OCCCCCOc2ccc(C(=N)N)cc2)cc1 ?
HCV core dimer: -6; Fh CTSL1 inh: 1; PP5 primary: 2.7; TPT1 inhibitor: -1; PAFAH2 FP inh: 0

Results for CO[C@@]12[C@H](COC(N)=O)C3=C(C(=O)C(C)=C(N)C3=O)N1C[C@@H]1N[C@@H]12 ?
HCV core dimer: 7; Fh CTSL1 inh: 5; PP5 primary: 1.0; TPT1 inhibitor: 0; PAFAH2 FP inh: 5

How did O=C(O)C[C@@H](O)C(=O)O do in these assays?
HCV core dimer: 6; Fh CTSL1 inh: -4; PP5 primary: 0.4; TPT1 inhibitor: 0; PAFAH2 FP inh: -2

What do the screens show for `CN1CCCC1c1cccnc1` (configuration not stated)?
HCV core dimer: 3; Fh CTSL1 inh: -2; PP5 primary: 2.4; TPT1 inhibitor: -2; PAFAH2 FP inh: 1

Results for Cc1ccc(S(=O)(=O)Nc2ccc(-c3nc4ccc(C)cc4s3)cc2)cc1 ?
HCV core dimer: 6; Fh CTSL1 inh: 3; PP5 primary: 4.0; TPT1 inhibitor: 0; PAFAH2 FP inh: -2

Results for CC(C)NCC(O)COc1cccc2ccccc12 (configuration not stated) ?
HCV core dimer: 5; Fh CTSL1 inh: -2; PP5 primary: 0.0; TPT1 inhibitor: 5; PAFAH2 FP inh: 2

Results for C[C@H](C(=O)O)c1cccc(C(=O)c2ccccc2)c1 ?
HCV core dimer: 2; Fh CTSL1 inh: -3; PP5 primary: -2.1; TPT1 inhibitor: 1; PAFAH2 FP inh: 1

What do the screens show for `Cc1cn([C@H]2C[C@H](N=[N+]=[N-])[C@@H](CO)O2)c(=O)[nH]c1=O`?
HCV core dimer: -1; Fh CTSL1 inh: -3; PP5 primary: -1.9; TPT1 inhibitor: -3; PAFAH2 FP inh: 0

Results for CN1C2CC(OC(=O)C(CO)c3ccccc3)CC1C1OC12 (configuration not stated) ?
HCV core dimer: -5&-4; Fh CTSL1 inh: -6&-2; PP5 primary: -1.1&-0.1; TPT1 inhibitor: -4&0; PAFAH2 FP inh: 1&1&9

What do the screens show for `O=C(O)/C=C\C(=O)O`?
HCV core dimer: 9; Fh CTSL1 inh: 1; PP5 primary: 0.2; TPT1 inhibitor: -4; PAFAH2 FP inh: 3

What do the screens show for `Cc1ncc([N+](=O)[O-])n1CCO`?
HCV core dimer: 7; Fh CTSL1 inh: -1; PP5 primary: -0.2; TPT1 inhibitor: -2; PAFAH2 FP inh: -1

Results for O=C(O)COCCN1CCN([C@H](c2ccccc2)c2ccc(Cl)cc2)CC1 ?
HCV core dimer: -14; Fh CTSL1 inh: 1; PP5 primary: 2.0; TPT1 inhibitor: -6; PAFAH2 FP inh: 3

What do the screens show for `CC(C)[N+]1(C)[C@@H]2CC[C@@H]1CC(OC(=O)C(CO)c1ccccc1)C2` (some centres not stated)?
HCV core dimer: 10; Fh CTSL1 inh: 0; PP5 primary: 1.9; TPT1 inhibitor: -4; PAFAH2 FP inh: -11

Results for Oc1cc(Cl)cc(Cl)c1Cl ?
PP5 primary: 1.4; PAFAH2 FP inh: 7

What do the screens show for `NC(=O)c1cccnc1`?
HCV core dimer: -8; Fh CTSL1 inh: 0; PP5 primary: 0.2; TPT1 inhibitor: 0; PAFAH2 FP inh: -7

What do the screens show for `NCCS(=O)(=O)O`?
HCV core dimer: -8; Fh CTSL1 inh: -2; PP5 primary: -1.1; TPT1 inhibitor: -4; PAFAH2 FP inh: -11

What do the screens show for `O=c1c(-c2ccc(O)cc2)coc2cc(O)ccc12`?
HCV core dimer: -8; Fh CTSL1 inh: 3; PP5 primary: 2.3; TPT1 inhibitor: 5; PAFAH2 FP inh: -5

What do the screens show for `COc1ccc(S(=O)(=O)N2CCN(C(=O)C3COc4ccccc4O3)CC2)cc1` (configuration not stated)?
PP5 primary: 0.8; PAFAH2 FP inh: 20

How did O=C(O)c1cc(=O)c2ccccc2[nH]1 do in these assays?
HCV core dimer: -1; Fh CTSL1 inh: 5; PP5 primary: 1.9; TPT1 inhibitor: -1; PAFAH2 FP inh: 4

How did CC(C)(C)CC(C)(C)c1ccc(OCCOCC[N+](C)(C)Cc2ccccc2)cc1 do in these assays?
HCV core dimer: -11; Fh CTSL1 inh: 9; PP5 primary: 2.2; TPT1 inhibitor: -2; PAFAH2 FP inh: 2

Results for CC(C)(C(=O)O)c1ccc(C(O)CCCN2CCC(C(O)(c3ccccc3)c3ccccc3)CC2)cc1 (configuration not stated) ?
HCV core dimer: -4; Fh CTSL1 inh: 0; PP5 primary: 1.0; TPT1 inhibitor: 2; PAFAH2 FP inh: -3

What do the screens show for `O=C(O)CCNC(=O)c1ccccc1`?
HCV core dimer: 0; Fh CTSL1 inh: -1; PP5 primary: -2.2; TPT1 inhibitor: -3; PAFAH2 FP inh: -5

Entries above containing four or more nitrogen atoms (five):
What do the screens show for `Cn1c(=O)c2c(ncn2C)n(C)c1=O`?
HCV core dimer: -7; Fh CTSL1 inh: -1; PP5 primary: 1.6; TPT1 inhibitor: -1; PAFAH2 FP inh: -5

How did O=c1[nH]cnc2c1ncn2[C@H]1CC[C@@H](CO)O1 do in these assays?
HCV core dimer: 3; Fh CTSL1 inh: 2; PP5 primary: -0.5; TPT1 inhibitor: 1; PAFAH2 FP inh: 0

Results for N=C(N)c1ccc(OCCCCCOc2ccc(C(=N)N)cc2)cc1 ?
HCV core dimer: -6; Fh CTSL1 inh: 1; PP5 primary: 2.7; TPT1 inhibitor: -1; PAFAH2 FP inh: 0

Results for CO[C@@]12[C@H](COC(N)=O)C3=C(C(=O)C(C)=C(N)C3=O)N1C[C@@H]1N[C@@H]12 ?
HCV core dimer: 7; Fh CTSL1 inh: 5; PP5 primary: 1.0; TPT1 inhibitor: 0; PAFAH2 FP inh: 5

What do the screens show for `Cc1cn([C@H]2C[C@H](N=[N+]=[N-])[C@@H](CO)O2)c(=O)[nH]c1=O`?
HCV core dimer: -1; Fh CTSL1 inh: -3; PP5 primary: -1.9; TPT1 inhibitor: -3; PAFAH2 FP inh: 0

Some of the compounds tested; rates above refer to the full screens.
